GIRK2 act: GIRK2 channel activation | HEK293-GIRK2 thallium flux, Thallos fluorescence | calls only for hits at 25 µM | 0.05% of 63,000 active;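 active = among the strongest 0.2% of first-round signals and kept after retests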;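 note: first round at about 10 µM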
Target sequence (P48051 whole entry, looked up): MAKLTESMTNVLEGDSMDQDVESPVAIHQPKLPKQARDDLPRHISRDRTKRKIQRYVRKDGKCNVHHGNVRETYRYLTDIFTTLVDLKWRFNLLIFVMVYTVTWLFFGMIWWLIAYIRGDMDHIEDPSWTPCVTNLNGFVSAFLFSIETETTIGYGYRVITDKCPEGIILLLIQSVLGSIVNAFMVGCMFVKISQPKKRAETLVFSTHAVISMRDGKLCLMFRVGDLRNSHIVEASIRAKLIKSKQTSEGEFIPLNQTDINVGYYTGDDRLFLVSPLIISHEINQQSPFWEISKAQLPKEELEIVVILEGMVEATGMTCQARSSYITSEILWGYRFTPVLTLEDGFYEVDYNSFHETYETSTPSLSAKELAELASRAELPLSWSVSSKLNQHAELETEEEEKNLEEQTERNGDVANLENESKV
Calls only; i = inactive.

Preview, two compounds:
SMILES | GIRK2 act
CCOC(=O)C1CCN(C(=O)c2csc(Nc3ccc(S(C)(=O)=O)cc3)n2)CC1 | i
Cc1cc(C)n(-c2cc(SCC(=O)NCc3ccco3)ncn2)n1 | i

The whole of this part (from the top)
SMILES | GIRK2 act
CCOC(=O)C1CCN(C(=O)c2csc(Nc3ccc(S(C)(=O)=O)cc3)n2)CC1 | i
Cc1cc(C)n(-c2cc(SCC(=O)NCc3ccco3)ncn2)n1 | i
CCOC(=O)N1CCN(C(=O)CCCn2c(=S)[nH]c3cc4c(cc3c2=O)OCO4)CC1 | i
Cc1cc(NC(=O)CSc2nnc(N3CCN(C(=O)c4ccc([N+](=O)[O-])o4)CC3)s2)no1 | i
CCOc1ccc(-c2ccc(N3CCN(C(=O)C(C)Oc4ccc5c(c4)OCO5)CC3)nn2)cc1 (centres undefined) | i
O=C(c1ccco1)N1CCN(S(=O)(=O)C2CC2)CC1 | i
O=C(NCc1cccs1)c1ccc(S(=O)(=O)N2CCOCC2)o1 | i
CN(Cc1ccccc1)S(=O)(=O)c1cc2c3c(c1)CCN3C(=O)CC2 | i
COC(=O)c1ccc(OC)c(Cn2cnc3c(-c4cccc(Cl)c4)csc3c2=O)c1 | i
O=C(NCC1(O)CCc2ccccc2C1)C12CC3CC(CC(C3)C1)C2 (centres undefined) | i

4 entries picked at random from the list so far:
SMILES | GIRK2 act
O=C(NCc1cccs1)c1ccc(S(=O)(=O)N2CCOCC2)o1 | i
CCOC(=O)N1CCN(C(=O)CCCn2c(=S)[nH]c3cc4c(cc3c2=O)OCO4)CC1 | i
CCOc1ccc(-c2ccc(N3CCN(C(=O)C(C)Oc4ccc5c(c4)OCO5)CC3)nn2)cc1 (centres undefined) | i
Cc1cc(NC(=O)CSc2nnc(N3CCN(C(=O)c4ccc([N+](=O)[O-])o4)CC3)s2)no1 | i

Exported field by field: 3 of the compounds above
Cc1cc(C)n(-c2cc(SCC(=O)NCc3ccco3)ncn2)n1
  GIRK2 act: i

CCOC(=O)N1CCN(C(=O)CCCn2c(=S)[nH]c3cc4c(cc3c2=O)OCO4)CC1
  GIRK2 act: i

COC(=O)c1ccc(OC)c(Cn2cnc3c(-c4cccc(Cl)c4)csc3c2=O)c1
  GIRK2 act: i

New compounds follow
SMILES | GIRK2 act
Cc1cc(C)c(S(=O)(=O)NCCO)c(C)c1N(C)S(=O)(=O)c1ccccc1 | i
O=C(NCCCc1ccccc1)NCC1(c2ccc(F)cc2)CC1 | i
CSc1ncccc1C(=O)N(CCc1cccs1)Cc1ccoc1 | i
Cn1cc(-c2ccco2)nc1CCNC(=O)Cc1ccc(F)cc1 | i
COc1cc(NS(=O)(=O)c2ccc(NC(=O)c3ccc(S(=O)(=O)N4CCCCC4)cc3)cc2)ncn1 | i
Cc1ccc(NCCn2c(C)c(C)n3c4c(=O)[nH]c(=O)n(C)c4nc23)cc1C | i
Cc1nc(NC(=O)c2nnn(-c3ccc(Cl)cc3)n2)sc1C(=O)N(C)C | i
CCOC(=O)CNC(=O)CN1CC(c2nc(C)no2)C1 | i
CC(=O)Cn1c(=O)c2c(nc3n(-c4ccc(C)c(Cl)c4)c(C)c(C)n23)n(C)c1=O | i
CCNC(=O)Nc1cccc(-c2nc3ccccc3o2)c1 | i

Two entries from above, as a markdown table:
| canonical_smiles | GIRK2 act |
| --- | --- |
| O=C(NCCCc1ccccc1)NCC1(c2ccc(F)cc2)CC1 | i |
| CSc1ncccc1C(=O)N(CCc1cccs1)Cc1ccoc1 | i |

Further entries.
SMILES | GIRK2 act
O=C(O)C1=Cc2ccccc2OC=C1 | i
O=C(Nc1ccc(F)cc1F)Nc1ccccc1-c1ccc(=O)[nH]n1 | i
O=c1ccc(-c2nc(-c3cnccn3)no2)cn1Cc1cccc(Br)c1 | i
CN1CCC(CNC(=O)NCCc2ccccc2)CC1 | i
Cc1ccc(-n2nnc3c(N4CCN(C(=O)C(C)C)CC4)ncnc32)cc1 | i
Cc1cc(C(=O)NCC#CCOc2ccccc2C(N)=O)no1 | i
O=C(NCCCN1CCN(c2ccccc2)CC1)C1CCCC1 | i
O=C(C1CCCN(c2ccc(-c3ccccc3)nn2)C1)N1CCN(Cc2ccc3c(c2)OCO3)CC1 (centres undefined) | i
O=C(Cn1nc(-n2cccn2)ccc1=O)N1CCc2ccccc2C1 | i
Cc1noc(C)c1C(=O)N1CCN(c2ccc(-c3noc(C(C)C)n3)cn2)CC1 | i
CCCCn1c(=O)c2c(nc3n2CC(C)CN3c2ccc(OC)cc2OC)n(C)c1=O (centres undefined) | i
CCOc1ccccc1NC(=O)Cn1nc(NC)c(-c2nc(-c3ccccc3)no2)c1N | i
CCCS(=O)(=O)N1CCCc2ccc(NC(=O)NCCc3ccc(OC)cc3)cc21 | i
CC(=O)c1cccc(NC(=O)c2cc3c(=O)n(C)c(=O)n(C)c3n2Cc2ccccc2)c1 | i
O=C(/C=C/c1ccco1)N1CCCSCC1CN1CCOCC1 (centres undefined) | i
Cc1noc(C2CN(C(=O)c3cnc4ccccc4n3)C2)n1 | i
COCC(C)(O)CNC(=O)C(=O)Nc1cccc(C(F)(F)F)c1 (centres undefined) | i
CC(=O)NCCc1nc2ccccc2n1CCCOc1ccc(Cl)cc1 | i
CSc1ccccc1C(=O)NCC1(c2ccccc2)CCOCC1 | i
O=C(/C=C/c1ccccc1F)c1cc([N+](=O)[O-])ccc1O | i
CCCCCNC(=O)C(=O)NCc1cccc(OC)c1 | i
CC(C)Cn1c(SCc2nc(-c3ccc(Br)cc3)no2)nc2ccsc2c1=O | i
Cc1nc(C)c(-c2ccc(=O)n(CCNC(=O)c3csc(-c4ccccc4)n3)n2)s1 | i
COc1ccc(C(C)n2c(=O)[nH]c3c(-c4ccccn4)nsc3c2=O)cc1OC (centres undefined) | i
COc1nn(C)cc1C(=O)Nc1ccc(C(=O)N2c3ccccc3CC2C)cc1 (centres undefined) | i
CC(O)(CNC(=O)Nc1cccs1)c1ccc2c(c1)OCO2 (centres undefined) | i
O=C(/C=C/c1cccs1)NCc1nn(C2CCCC2)c(=O)c2ccccc12 | i
O=C(Cn1ccc2ccccc21)Nc1ccccc1OC(F)(F)F | i
CCOc1ccc(NC(=O)CN2CCN(Cc3nc(C(C)(C)C)cs3)CC2)cc1 | i
CC(=O)c1ccc(NC(=O)CSc2nccnc2N2CCN(c3cccc(C)c3C)CC2)cc1 | i
COc1cc(NS(=O)(=O)c2ccc3c(c2)CCCC3)ccc1N1CCCCC1=O | i
COc1cc(/C=C/C(=O)NCC(O)c2ccoc2)cc(OC)c1OC (centres undefined) | i
O=C(Cn1ncn2nc(-c3ccc(F)cc3)cc2c1=O)NC1CCCC1 | i
COc1ccc(-n2nnc(C(=O)Nc3ccc(S(N)(=O)=O)cc3)c2C)cc1 | i
Cc1ccc(NC(=O)c2cc3cccnc3n(C)c2=O)cc1C | i
Cc1ccc(Cl)cc1NC(=O)CN1CCN(c2cccc(C)c2C)CC1 | i
Cc1nc(CC(=O)NCc2ccc(C(F)(F)F)cc2)sc1C(=O)NCc1ccccc1 | i
COc1ccc(C=Nc2ccccc2-c2nc3ccccc3[nH]c2=O)cc1 | i
Cc1nc(-c2ccc(S(=O)(=O)N3CCC(C)CC3)s2)cs1 | i
COc1ccc(C(=O)Cn2c(N3CCC(C)CC3)nc3c2c(=O)[nH]c(=O)n3C)cc1 | i
COC(=O)c1sccc1S(=O)(=O)NCCn1nc(C2CC2)n(-c2ccccc2)c1=O | i
Cc1nnc2c(S(=O)(=O)N(Cc3ccccc3F)c3cc(F)cc(F)c3)cccn12 | i
COc1ccc(OCCn2c(C3CC(=O)N(c4ccccc4OC)C3)nc3ccccc32)cc1 (centres undefined) | i
C=C(C)Cn1c(=O)c2c(nc3n(-c4ccccc4O)c(C)c(C)n23)n(C)c1=O | i
Cc1c([N+](=O)[O-])cc(S(=O)(=O)NCCOc2ccc3c(c2)OCO3)cc1[N+](=O)[O-] | i
COc1ccc(CCNC(=O)N2CCC(c3nnc(C4CC4)s3)CC2)cc1 | i
O=C(NC1CCCCC1)N(CCc1cccs1)C1CC1 | i
CC(=O)Nc1ccc(SCCCC(=O)Nc2nccs2)nn1 | i
CSc1nn(CC(=O)Nc2ccc3c(c2)OCCO3)c(N)c1-c1nc(-c2ccc(C)cc2)no1 | i
COc1ccc(C(O)=C2C(=O)C(=O)N(c3cc(C)on3)C2c2ccccc2F)cc1Cl (centres undefined) | i
Going on with the list:
SMILES | GIRK2 act
Cc1cc(C)n(-c2ccc(=O)n(CCNC(=O)c3cc(-c4ccc(F)cc4F)n[nH]3)n2)n1 | i
COc1ncc(NS(=O)(=O)c2cc(C)c(OC)cc2C)cn1 | i
O=C(Nc1ccc(C(F)(F)F)cc1)C(=O)Nc1ccc2c(c1)OCO2 | i
CC(C)NC(=O)c1ccc2c(=O)n(Cc3ccccc3)c3nn(Cc4cccc(F)c4)c(=O)n3c2c1 | i
CCOc1ccc(NC(=O)N2CCC(CSc3ccccn3)CC2)cc1 | i
COc1cccc(C(=O)NCc2cnn3ccccc23)c1OC | i
COc1ccc(OC)c(NC(=O)CSc2nccn2-c2ccc(C(=O)NCc3ccco3)cc2)c1 | i
COc1cc(NC(=O)C2CCCN(c3cnc4ccccc4n3)C2)cc(OC)c1OC (centres undefined) | i
O=C(CSc1nccn1-c1cccc(C(=O)NCc2ccccc2)c1)Nc1cc(F)ccc1F | i
Cc1nn(-c2ncc(NC(=O)Nc3ccccc3F)cn2)c(C)c1C | i
Cc1ccc2c(c1)N(c1cccc(C(C)C)c1)C=C(C#N)S2(=O)=O | i
CCn1cc(C(=O)NCc2cccc(OC)c2)c(S(=O)(=O)N2CCCCC2)n1 | i
O=C(CN1CCC(Cn2ccnc2)CC1)Nc1ccc2c(c1)OCO2 | i
O=C(Cc1ccc(NC(=O)c2cc(C3CC3)on2)cc1)NCC(F)(F)F | i
CC(C)(C)OC(=O)CN1CCC(c2nnc(C(F)(F)F)o2)CC1 | i
Cn1c(-c2nc(C(=O)N3CCCC3)cs2)cc2ccccc21 | i
Cc1cc(S(=O)(=O)N2CCN(c3c(C)cccc3C)CC2)ccc1F | i
O=C(NCC1(c2cccs2)CC1)c1ccc(S(=O)(=O)N2CCOCC2)cc1 | i
COc1ccc(C2CCCN2CCNC(=O)c2ccc(=O)[nH]n2)cc1 (centres undefined) | i
CNC(=O)CSc1nnc(-c2c(C)nc3sccn23)n1C | i
O=C(Nc1nnc(C2CC(=O)N(c3ccccc3)C2)o1)c1sc2ccccc2c1Cl (centres undefined) | i
O=C(CN1C(=O)NC(c2cccc(Cl)c2)C2=C1COC2=O)Nc1ccc(F)cc1F (centres undefined) | i
CC(C)(C)NC(=O)C(=O)NCC(O)c1ccsc1 (centres undefined) | i
O=C(NCC1(c2ccc(F)cc2)CC1)C(=O)Nc1ccon1 | i
N#Cc1cccc(C(=O)N2CC(c3nc(-c4cccnc4)no3)C2)c1 | i
CC(C)Oc1ccc(C2C(=C(O)c3ccc(F)cc3)C(=O)C(=O)N2CCCN(C)C)cc1 (centres undefined) | i
COCCn1c(=O)c2c(nc3n(-c4ccc(C(F)(F)F)cc4)c(C)cn23)n(C)c1=O | i
COC(=O)c1ccc2c(=O)n(Cc3ccc(C(=O)NC4CCCCC4)cc3)c(=S)[nH]c2c1 | i
COCCn1c(=O)c2c(nc3n(-c4ccc(C)c(Cl)c4)c(C)cn23)n(C)c1=O | i
Cc1nc(-c2ccco2)sc1CNS(=O)(=O)c1ccc(F)c(Cl)c1 | i
CC(C)c1nccn1CC1CCN(C(=O)/C=C/c2ccccc2)CC1 | i
Cc1cn2c3c(=O)n(CCCc4ccccc4)c(=O)n(C)c3nc2n1CCCl | i
NC(=O)c1ccccc1NC(=O)c1csc2nc(-c3ccc(F)cc3)cn12 | i
CCc1ccc(S(=O)(=O)NCCn2nc(-c3ccc(OC)cc3)ccc2=O)cc1 | i
O=C(Nc1nc2ccccc2[nH]1)C1CCN(c2ccc(-c3cccs3)nn2)CC1 | i
Cn1c(=O)c2c(nc(N)n2Cc2ccccc2)n(C)c1=O | i
O=C(c1ccc(S(=O)(=O)NCc2cccnc2)o1)N1CCN(c2ccccc2F)CC1 | i
Cc1ccc(C2=NC3(CCN(CC(=O)Nc4ccc5c(c4)OCO5)CC3)NC2=O)cc1 | i
COc1ccc(OC)c(/C=C2\SC(=S)N(c3ccc(NC(C)=O)cc3)C2=O)c1 | i
CCN1CCc2c(sc(NC(=O)c3ccco3)c2-c2nc3ccccc3s2)C1 | i
CC(C)[C@H](C(=O)Nc1ccc(C(=O)NO)cc1)c1ccccc1 | i
COc1cccc(S(=O)(=O)NCC#CCN2CCOCC2)c1 | i
O=C(NCC1CCN(S(=O)(=O)c2cccnc2)CC1)Nc1ccc(Cl)c(Cl)c1 | i
Cc1nnc(NC(=O)C2CCCN(c3ccc(-c4ccccc4)nn3)C2)s1 (centres undefined) | i
Cc1ccc(OCC(O)Cn2c(N/N=C\c3ccc([N+](=O)[O-])o3)nc3c2c(=O)n(C)c(=O)n3C)cc1 (centres undefined) | i
COc1cccc2cc(C(=O)N3CCN(c4cccc(C(F)(F)F)c4)CC3)c(=O)oc12 | i
CCCCC(=O)Nc1c(-c2cc(OC)c(OC)c(OC)c2)c(=O)c2ccccc2n1C | i
O=C(Cn1cccn1)N1CCN(c2ccc(-c3noc(C(F)(F)F)n3)cn2)CC1 | i
C/C=C/c1ccc(OCC(O)CNC(C)(C)CC(C)(C)C)c(OC)c1 (centres undefined) | i
O=C(O)c1cn[nH]c1S(=O)(=O)NCCC1=CCCCC1 | i
New compounds follow
SMILES | GIRK2 act
COCC(=O)N1CCN(Cc2nnnn2-c2cccc(F)c2)CC1 | i
Cc1ccc(NC(=O)Cn2c(C)nc3c(-c4ccncc4)nsc3c2=O)cc1Cl | i
CNC(=O)CSc1cnn(CC(=O)Nc2ccc(F)cc2Cl)c(=O)c1Cl | i
O=C(C1COc2ccccc2O1)N1CC(c2nc(-c3cccs3)no2)C1 (centres undefined) | i
O=C(Cn1cccc(-c2nc(-c3ccc(Br)cc3)no2)c1=O)NC1CCCC1 | i
CCc1ccccc1NC(=O)CN(C)c1nc2c(C(F)(F)F)cccc2s1 | i
CCc1nc2ccccc2n1CCOc1ccccc1 | i

Only part of the results is shown, so the mix of outcomes need not match the whole.
